# Screening results: PubChem BioAssay, National Center for Advancing Translational Sciences (NCATS)
# VDR inh: inhibitors of human vitamin D receptor; P11473; AID 504847; 0.93% of 400,000 active; VDR-SRC2-3 peptide fluorescence polarization, 2 h; Potency, µM, for inactives: max response, negative = inhibition, hits mostly inhibitors; active means well fitted inhibition curve with a large enough effect; inconclusive means small, poorly fitted or top-dose-only effect, or another doubt; inactive means no such curve, though single readings can be large or run the other way; further: series mostly up to about 120 µM
# Target sequence (P11473 whole entry, looked up): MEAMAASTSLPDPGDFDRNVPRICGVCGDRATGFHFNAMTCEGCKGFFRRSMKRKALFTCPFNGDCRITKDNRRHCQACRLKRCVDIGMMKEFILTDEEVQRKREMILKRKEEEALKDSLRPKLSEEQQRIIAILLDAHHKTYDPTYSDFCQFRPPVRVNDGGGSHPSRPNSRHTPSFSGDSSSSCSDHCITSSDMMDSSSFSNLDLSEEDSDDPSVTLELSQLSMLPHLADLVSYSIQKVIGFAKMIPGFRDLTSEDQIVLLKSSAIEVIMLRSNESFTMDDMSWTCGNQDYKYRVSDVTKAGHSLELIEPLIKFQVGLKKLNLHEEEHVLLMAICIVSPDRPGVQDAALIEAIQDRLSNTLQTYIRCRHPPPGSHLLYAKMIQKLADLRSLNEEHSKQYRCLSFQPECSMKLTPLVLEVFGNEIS
#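 Two reagent solutions held at 4 deg C in the dark were dispensed, compounds pinned at 23 nl, and the mixture incubated 2 h at room temperature. Read-out: fluorescence polarization of VDR–SRC2-3 peptide binding.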
# Numbers without * were called inactive; ? = inconclusive; & = joins results of further samples. On the % scale 0 is the no-effect control and ±100 the full control effect; potency means the concentration at half of the fitted maximal effect. A portion of the library; count on the stated rates, not on these rows.
SMILES,VDR inh
COCc1c(C(=O)OCC(=O)N2c3ccccc3NC(=O)C2(C)C)oc2ccccc12,12.9%
COc1cccc(NC(=O)CN(c2ccc(C)cc2)S(=O)(=O)c2c(C)nn(C)c2C)c1,7.6%
COc1ccc(OCC(=O)Nc2cc(NC(=O)COc3ccc(OC)cc3)cc(C(=O)O)c2)cc1,-12.1%
O=C(CN1C(=O)S/C(=C\c2ccccc2Cl)C1=O)NC1C=CS(=O)(=O)C1 (configuration not stated),-14.4%
C[C@H](NC(=O)c1ccc(Cl)cc1)C(=O)OCn1nnc2ccccc2c1=O,-6.4%
O=C(c1nc2ccccn2c1CNCCCn1ncc2ccccc21)N1CCOCC1,13.9%
COc1ccc2c(-c3ccc(S(N)(=O)=O)cc3)c(-c3ccc(S(C)(=O)=O)cc3)sc2c1,-5.0%
CC1CCCCN1CC(=O)Nc1sccc1C#N (configuration not stated),8.0%
Cn1c(=O)c2c(nc(N3CCCCCC3)n2CCSc2nc3ccccc3o2)n(C)c1=O,-13.5%
O=C1NC2(CCCCC2)N=C1c1ccc(Br)cc1,-9.4%
Cc1ccc(NC(=O)c2csc(-c3ccccc3)c2C)cc1,-19.1%
COC(=O)c1sccc1S(=O)(=O)N1CCN(c2cc(Cl)ccc2C)CC1,9.9%

# Some of the entries so far, with bars between the fields.
compound | VDR inh
O=C1NC2(CCCCC2)N=C1c1ccc(Br)cc1 | -9.4%
COc1cccc(NC(=O)CN(c2ccc(C)cc2)S(=O)(=O)c2c(C)nn(C)c2C)c1 | 7.6%
Cn1c(=O)c2c(nc(N3CCCCCC3)n2CCSc2nc3ccccc3o2)n(C)c1=O | -13.5%

# New compounds follow.
SMILES,VDR inh
CCC(Cc1ccccc1)NC(=O)c1ccc2nc(N3CCC(C)CC3)sc2c1 (configuration not stated),6.7%
Cc1[nH]nc2c1C(c1ccc(N(C)C)cc1)C1=C(CC(C)(C)CC1=O)N2 (configuration not stated),-8.7%
CC(C)OCCCNCC(O)c1ccccc1 (configuration not stated),-5.0%
Cc1cccc([C@@H]2[C@@H]3C(=O)N(Cc4ccccc4)C(=O)[C@@H]3[C@]3(C)C(=O)N(c4cccc(F)c4)C(=O)N23)c1,-3.4%
COc1ccc(C2=Nc3cccc4cccc(c34)N2)cc1,-11.8%
COc1ccccc1-n1c(C)c(C(C)=O)c2cc(O)ccc21,-2.6%
Cc1cc(C)nc(NCCCc2ccccc2)n1,-14.1%
CCOc1ccc(NC(=O)C2CC(=O)N(c3cc(C)cc(C)c3)C2)cc1 (configuration not stated),22.1%
O=C(O)/C=C(\Oc1ccccc1)C1(O)CCCCC1,-10.6%
NC1CCN(c2cccc(Cl)n2)CC1,5.8%&4.8%
Cc1oc(-c2ccccc2Cl)nc1CS(=O)CC(=O)NCc1ccc2c(c1)OCO2 (configuration not stated),-3.3%
COC(=O)c1c(NC(=S)NC(=O)c2ccco2)sc2c1CCCC2,-0.6%

# Sorted by length of the SMILES (largest number first): some entries from above
SMILES,VDR inh
CCOc1ccc(NC(=O)C2CC(=O)N(c3cc(C)cc(C)c3)C2)cc1 (configuration not stated),22.1%
COC(=O)c1c(NC(=S)NC(=O)c2ccco2)sc2c1CCCC2,-0.6%
CC1CCCCN1CC(=O)Nc1sccc1C#N (configuration not stated),8.0%

# Next records:
SMILES,VDR inh
Cc1cc(C)nc(/N=C(\N)Nc2cc([N+](=O)[O-])ccc2C)n1,-3.6%
O=C(O)CCCCCn1c(SCc2cc(=O)n3cc(Cl)ccc3n2)nc2ccsc2c1=O,1.0%
CC(NC(=O)Nc1ccc(Cl)cc1)c1ccccc1 (configuration not stated),0.4%
Cc1ccc(C)c(CN2C(=O)c3ccccc3Sc3ccc(C(=O)NCc4ccco4)cc32)c1,-12.6%
O=C(CN1C(=O)CCS(=O)(=O)c2ccccc21)Nc1cccc(Cl)c1,6.8%
O=C(COC(=O)[C@@H]1CCCN1S(=O)(=O)c1ccc(Cl)cc1)NCC(F)(F)F,-21.1%
CCc1ccc(C(=O)Nc2nc3ccccc3[nH]2)cc1,4.2%
CC(C)NC(=O)COc1nncc2ccccc12,-7.4%
N#Cc1c(-c2ccccc2)c(C#N)c2nc3ccccc3n2c1N,-11.1%
CC(C)(C)NC(=O)CSc1nc(Cc2ccccc2)nc2ccccc12,-13.9%
CCN(CC)C(=O)Cn1c(=O)n(-c2ccc(Cl)cc2)c(=O)c2c3c(sc21)CCCCC3,-11.9%
Cc1ccc(C(=O)CSc2nnc(-c3ccccc3)n2-c2ccccc2)cc1,9.9%
O=C(CN1C(=O)c2ccccc2S1(=O)=O)NCCSCc1ccccc1Cl,-0.6%
Cc1ccc(C2C(=O)c3ccccc3C2=O)cc1,-13.2%
COc1ccc2c(c1)CCN=C2Cc1ccc(OC)c(OC)c1,-18.4%
Cc1oc2c(c(C)cc3oc(=O)c(CC(=O)NCCC(=O)O)c(C)c32)c1C,5.5%
CCCCN(CC)C(=O)CSc1c2c(nc3ccc(Cl)cc13)CCCC2,?
Cc1ccc(NC(=O)C2CCN(S(=O)(=O)c3ccc4c(c3)NC(=O)CO4)CC2)cc1,-1.6%
COc1ccc(C(=O)c2nc3c(n2O)CCCCC3)cc1,-19.6%
CCCCOc1ccc(CNC(=O)c2cc3n(n2)CCCN(Cc2ccc(C)cc2)C3=O)cc1,15.9%
CC12CCC(C(=O)N(CC(O)CN3CCCCCC3)C1=O)C2(C)C (configuration not stated),14.4%
CCOC(=O)c1ccc(S(=O)(=O)N2CCN(C(=O)c3cccc(S(=O)(=O)N4CC(C)OC(C)C4)c3)CC2)cc1 (configuration not stated),0.2%
CCOC(=O)C1=CN(CC2CCCO2)C=C(C(=O)OCC)C1c1ccccc1C(F)(F)F (configuration not stated),-2.4%
CCOc1ccc(N2C(=O)CC(S/C(N)=N/N=C/c3cccs3)C2=O)cc1 (configuration not stated),4.2%
COc1ccc(C(C(=O)NC2CCCCC2)N(C(=O)Cc2c[nH]c3ccccc23)c2ccc(NC(C)=O)cc2)cc1OC (configuration not stated),3.8%
Cc1cc(C(=O)COC(=O)c2n[nH]c3ccccc23)c(C)n1CC1CCCO1 (configuration not stated),-18.2%
CNS(=O)(=O)c1ccc(NC(=O)c2csc(C)c2)cc1,13.3%
COc1ccc(CN2CCN(Cc3cc4ccccc4o3)CC2CCO)c(F)c1 (configuration not stated),-22.2%
O=S(=O)(c1ccccc1)c1nc(Cc2ccccc2)oc1N1CCOCC1,-20.2%
O=C1c2ccccc2NC(c2ccccc2)N1Cc1ccccc1 (configuration not stated),-22.6%
CC1CC(C)CN(C(=O)COC(=O)c2cc([N+](=O)[O-])ccc2N2CCOCC2)C1 (configuration not stated),-5.2%
Nc1ccc(S(=O)(=O)N2CCCC2)cc1,-5.1%
CCOc1ccc(NC(=O)C(C)n2c(=O)cc(-c3ccccc3)c3c(C)nn(C)c32)cc1 (configuration not stated),8.7%
O=C(O)CSCc1cnn(-c2ccccc2)c1-n1cccc1,-2.0%
O=C(c1ccc2c(c1)[nH]c(=S)n1c3ccccc3nc21)N1CCN(c2ncccn2)CC1,0.2%
COCCCNC(=S)Nc1ccc(N2CCCCC2)cc1,28.4%
Cc1cc(=O)oc2c(C)c(OCC(=O)NC3CC(C)(C)NC(C)(C)C3)ccc12,6.0%
CCN(CCCNC(=O)C1CCC(=O)N1C1CCCC1)c1cccc(C)c1 (configuration not stated),8.7%
COc1cccc(NC(=O)c2oc3ccccc3c2NC(=O)c2ccccc2C)c1,-15.7%
CCc1cccc(N(C(=O)c2csnn2)C(C(=O)NC2CCCC2)c2cccnc2)c1 (configuration not stated),4.5%
COc1ccccc1Nc1ncccc1C(=O)O,-1.3%
COc1ccc(-c2noc(=O)[nH]2)cc1,6.7%
Cc1n[nH]c(=S)n1/N=C/c1ccc(OCc2ccc(Cl)cc2)cc1,-3.2%
CNC(=O)CSc1nc2cccnc2n1C1CCCCC1,5.8%
COc1ccc2c(CC(=O)OCC(=O)Nc3ccccc3[N+](=O)[O-])coc2c1,-15.4%
Cc1cc(C)cc(C(=O)N(CCc2ccccc2)C2=CC3CCC(C2)N3C)c1 (configuration not stated),4.9%
Cc1nn(C)c(NC(=O)c2ccc([N+](=O)[O-])cc2)c1Cl,6.4%
Cn1nnnc1SCC(=O)N1N=C(c2ccc(Cl)cc2)CC1c1ccco1 (configuration not stated),-7.5%
CSc1nnc(N2C(=O)C(O)=C(C(=O)c3ccco3)C2c2cccc(Cl)c2)s1 (configuration not stated),5.9%
Cc1cc(C)c2c(-n3cccc3)c(C(=O)NNS(=O)(=O)c3ccccc3)sc2n1,-5.2%
COC(=O)c1ccc(Cn2nnc3sc4c(c3c2=O)CCC(C)C4)cc1 (configuration not stated),-23.1%
CC(Sc1nnc(-c2ccco2)n1C)C(=O)Nc1ccc(N2CCOCC2)cc1 (configuration not stated),12.3%
Cc1cccc(C)c1NC(=O)CN(C)C(=O)c1ccc2c(=O)n3c(nc2c1)CCC3,-16.0%
CCOC(=O)C1C(=O)CC(C)(O)C(C(=O)OCC)C1/C=C/c1ccccc1 (configuration not stated),12.1%
CCc1ccc(N/C(SCc2cccc(F)c2)=C(/C#N)C(=O)NCc2ccco2)cc1,3.5%
O=C(Nc1nc2c(F)cccc2s1)c1ccc([N+](=O)[O-])o1,-7.8%
CCc1ccc(CN(C)C(=O)C2CCC(=O)N(CCc3ccc(OC)cc3)C2)nc1 (configuration not stated),4.5%
COc1ccc(C2CC(=O)c3cc(OC)c(OC)cc32)cc1OC (configuration not stated),-7.2%
CCCCn1c(-c2nn(C)cc2Cl)n[nH]c1=S,6.4%
CCOc1ccc(CNC(=O)C2CCCN(S(C)(=O)=O)C2)cc1OC (configuration not stated),-6.1%

# Further compounds follow:
SMILES,VDR inh
COc1ccc(NC(=O)Nc2ccon2)cc1OC,-1.5%
COc1ccc(NC(=O)C(NC(=O)C2CCC(C)CC2)C(C)C)cc1 (configuration not stated),-2.3%
COC(=O)CCC(=O)Nc1nccs1,-18.9%
CC(C(=O)NC1CCCC1)N(c1ccc(Oc2ccccc2)cc1)S(C)(=O)=O (configuration not stated),10.1%
O=C(O)C1CCCN1S(=O)(=O)c1ccc2c(c1)CCC2 (configuration not stated),-3.1%
Cc1[nH]c2ccccc2c1SCC(=O)N1CCN(c2ccccc2)CC1,-9.7%
COc1ccc2c(c1)C(c1ccccc1)NC(=O)C2 (configuration not stated),6.6%
CSc1ccc(NC(=O)NCc2ccccc2)cc1,-3.2%
CC1CCN(S(=O)(=O)c2ccc3c(c2)oc(=O)n3CC(=O)NCc2ccc(F)cc2)CC1,16.1%
Cc1ccc(-n2nc3c(=O)n(CC(=O)NCc4cccs4)nc(C)c3c2C)cc1,-18.3%
O=C(NCCS(=O)(=O)NC1CCCCC1)c1ccccc1,-17.0%
COc1cccc(OCC(=O)NC2CCCCCC2)c1,-4.9%

# Compounds above that contain a nitro group on carbon (5):
SMILES,VDR inh
Cc1cc(C)nc(/N=C(\N)Nc2cc([N+](=O)[O-])ccc2C)n1,-3.6%
CC1CC(C)CN(C(=O)COC(=O)c2cc([N+](=O)[O-])ccc2N2CCOCC2)C1 (configuration not stated),-5.2%
COc1ccc2c(CC(=O)OCC(=O)Nc3ccccc3[N+](=O)[O-])coc2c1,-15.4%
Cc1nn(C)c(NC(=O)c2ccc([N+](=O)[O-])cc2)c1Cl,6.4%
O=C(Nc1nc2c(F)cccc2s1)c1ccc([N+](=O)[O-])o1,-7.8%

# Other structures follow:
SMILES,VDR inh
COc1ccc(NCc2cc3cc4c(cc3n(CC(=O)Nc3ccc(C)cc3C)c2=O)OCO4)cc1,2.5%
COCCNC(=O)C(=O)NCC(c1ccc2c(c1)OCO2)N1CCOCC1 (configuration not stated),-8.0%
COc1ccc(NC(=O)c2cccc(N3C(=O)C4C5CCC(C5)C4C3=O)c2)cc1 (configuration not stated),15.3%
O=C(Cn1c(=O)c2c(ncn2Cc2ccccc2)n(Cc2ccccc2)c1=O)N1CCc2ccccc21,-3.7%
CC(=O)N/C(=C\c1ccccc1)C(=O)OCc1cc(C)ccc1C,?
O=C(O)c1cccc(N(CCO)CCO)c1,10.0%
CNc1cc(OC)c(C(=O)N[C@@H]2CCN(Cc3ccccc3)[C@H]2C)cc1Cl,-28.4%
CCc1ccc(S(=O)(=O)Nc2cc3c(cc2N2CCOCC2)n(C)c(=O)c(=O)n3C)cc1,-8.0%&9.0%
CC(=O)Nc1ccc(SCC(=O)Nc2oc(C)c3c(C)n[nH]c(=O)c23)cc1,-11.0%
COc1ccc(C(=S)N2CCN(c3ccccc3C)CC2)cc1OC,?
Cc1cc(SCC(=O)NCc2ccc(F)cc2)nc(=O)[nH]1,12.7%
Cc1ccc2nc(COC(=O)c3cnccn3)cc(=O)n2c1,-4.1%

# Two of the compounds above, with values ahead of the structure.
VDR inh | canonical_smiles
? | COc1ccc(C(=S)N2CCN(c3ccccc3C)CC2)cc1OC
-28.4% | CNc1cc(OC)c(C(=O)N[C@@H]2CCN(Cc3ccccc3)[C@H]2C)cc1Cl

# (further entries)
SMILES,VDR inh
CCN(CC(=O)Nc1c(F)cccc1F)C(=O)CCc1nc2cc(S(=O)(=O)N3CCOCC3)ccc2n1C,-26.4%
NC(=O)NC(=O)COC(=O)c1ccc(OC(F)(F)F)cc1,14.3%
COCCCn1c(SCc2nc3ccccc3c(=O)[nH]2)nc2ccccc2c1=O,-8.6%
Cc1ccc(S(=O)(=O)N2CCOCC2)cc1C(=O)OCC(=O)c1ccc(Br)cc1,-5.0%
CCN(CC(=O)NC(=O)NC1CCCCC1)Cc1nc2ccccc2c(=O)[nH]1,5.1%
O=C(CNC(=O)c1cccs1)NCCN1CCN(Cc2ccccc2)CC1,-5.3%
CCC/C(=N/NC(=O)c1cccc(Cl)c1)c1ccccc1,-10.0%
COc1cccc(/C=N/n2c(-c3cccs3)n[nH]c2=S)c1,6.5%
O=C1CCN(CCCc2ccccc2)CCN1CCO,?
CCc1nnc(NC(=O)c2cc(S(=O)(=O)N3CCCCC3)ccc2C)s1,-27.7%
Cc1ccc(C(C(=O)NC2CCCCC2)N(CCCN2CCOCC2)C(=O)c2snc(C(N)=O)c2N)cc1 (configuration not stated),-4.7%
Cc1ccc(Cl)cc1-c1ccc(C=Nc2ccc(N3CCOCC3)cc2)o1,?
Cn1c(N)c(C(=O)CCl)c(=O)n(C)c1=O,-4.5%
